Compound activity from PubChem.
Luciferase inh – qHTS Assay for Inhibitors of Firefly Luciferase; Luciferin 4-monooxygenase (Photinus pyralis), P08659; purified firefly luciferase, luminescence, 8 min; Potency, µM (doses to about 57.1 µM), for inactives: at the highest dose activity change, negative = inhibition, usual class: inhibitors; 72,000 tested, 2.2% active; note: potency is the fitted concentration of half-maximal effect; % is set by controls: 0 for no effect and ±100 for the full control effect; nearly all actives have a fitted effect of over 40% in size
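Substrate buffer containing 10 uM ATP (pH 7.2 imidazole, Mg2+, KCl, detergent, BSA) is dispensed, compound pinned in, then luciferase/luciferin detector mix added. After 8 min at ambient temperature, light output is measured.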
Tau filament bind – qHTS Assay for Tau Filament Binding; Potency, µM (series often up to 57.1 µM), for the others: top-dose activity change, negative = inhibition; recombinant tau filaments, thioflavin S fluorescence, 15 h; filaments grown with octadecylsulfate alongside compound; Microtubule-associated protein tau (Homo sapiens), P10636; 71,000 tested, 2% active;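 note: potency is the fitted concentration of half-maximal effect; % is set by controls: 0 for no effect and ±100 for the full control effect; actives lower thioflavin S fluorescence by blocking filaments or displacing dye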
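ThS-based fibril read: tau 1 uM final, inducer ODS 30 uM final, 37 C for 15 h, ex 450/em 510 nm.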
Pol III holo inh – qHTS Assay for Inhibitors of DNA Polymerase III Holoenzyme System; reconstituted DNA polymerase III holoenzyme replication, biochemical; Potency, µM (highest dose often 57.1 µM), for inactives: at the highest dose activity change, negative = inhibition; 71,000 tested, 0.25% active; note: potency is the fitted concentration of half-maximal effect; % is set by controls: 0 for no effect and ±100 for the full control effect
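Reconstituted *E. coli* holoenzyme (0.35 nM Pol III, 1 nM beta, 154 nM SSB, 2 nM primase) was preincubated with compound for 15 min at RT. Synthesis on 1.4 nM ssM13Gori ran 35 min, then was stopped with PicoGreen/EDTA and read as dsDNA fluorescence.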
Rhodamine fluor – qHTS Assay for Spectroscopic Profiling in Rhodamine Spectral Region; Rhodamine-region fluorescence, 547/598 nm, Tris buffer; active compounds read high; max dye-equivalent concentration, M; 59,000 tested, 0.05% active; in the data active = max dye-equivalent concentration above about 11 nM; inconclusive = between about 1.1 nM and that limit
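Read-out is relative fluorescence at 547 nm excitation and 598 nm emission, expressed as dye-equivalent concentration using rhodamine standards on every plate. Each compound was profiled across a concentration series after 15 min in 100 mM Tris, pH 8.0.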
15-hLO inh – qHTS Assay for Inhibitors of 15-hLO (15-human lipoxygenase); Polyunsaturated fatty acid lipoxygenase ALOX15 (Homo sapiens), P16050; purified 15hLO-1, xylenol orange hydroperoxide absorbance; Potency, µM (highest dose often 57.1 µM), for inactives: at the highest dose activity change, negative = inhibition, most hits filed as inhibitors; 74,000 tested, 1.4% active; AID 887, 2007; note: potency is the fitted concentration of half-maximal effect; % is set by controls: 0 for no effect and ±100 for the full control effect; nearly all actives have a fitted effect of over 55% in size
Target sequence (P16050 whole entry, looked up): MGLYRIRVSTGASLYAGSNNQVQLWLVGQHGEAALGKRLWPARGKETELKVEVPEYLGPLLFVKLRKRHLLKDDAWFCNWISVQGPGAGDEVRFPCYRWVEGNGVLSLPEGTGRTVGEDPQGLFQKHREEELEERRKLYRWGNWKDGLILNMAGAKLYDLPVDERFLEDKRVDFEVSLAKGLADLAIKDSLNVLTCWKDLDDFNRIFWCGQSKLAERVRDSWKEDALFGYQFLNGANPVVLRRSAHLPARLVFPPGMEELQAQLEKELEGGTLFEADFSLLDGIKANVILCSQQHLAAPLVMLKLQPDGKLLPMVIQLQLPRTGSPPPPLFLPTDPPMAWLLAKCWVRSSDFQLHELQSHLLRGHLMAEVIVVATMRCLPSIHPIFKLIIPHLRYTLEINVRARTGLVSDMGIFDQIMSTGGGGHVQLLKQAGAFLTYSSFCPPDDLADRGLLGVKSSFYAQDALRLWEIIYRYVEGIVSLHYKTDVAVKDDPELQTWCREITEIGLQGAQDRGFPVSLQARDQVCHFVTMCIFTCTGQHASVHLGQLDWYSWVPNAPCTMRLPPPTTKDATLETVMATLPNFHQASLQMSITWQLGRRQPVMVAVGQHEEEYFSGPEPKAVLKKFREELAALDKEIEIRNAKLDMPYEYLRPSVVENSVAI
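Purified human 15hLO-1 (40 nM) in 25 mM Hepes pH 7.5, 0.01% Triton X-100, preincubated 15 min RT with compound, then 50 uM arachidonic acid for 6 min. Hydroperoxide read by ferrous/xylenol orange, 30 min; 573/405 nm absorbance ratio gave progress.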
Texas Red fluor – qHTS Assay for Spectroscopic Profiling in Texas Red Spectral Region; Compound fluorescence, Texas Red channel, 547/618 nm; active compounds read high; max dye-equivalent concentration, M; AID 587, 2007; 59,000 tested, 0.06% active; in the data active = max dye-equivalent concentration above about 10 nM; inconclusive = between about 1.1 nM and that limit
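qHTS profiling of intrinsic compound fluorescence; 100 mM Tris pH 8.0; 15 min RT; ex 547 / em 618 nm; response expressed as Texas Red dye-equivalent concentration from six-point plate standard.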
CRE Fsk mod – Cell signaling CRE-BLA (Fsk stim). CHO CRE-bla reporter (cAMP response element driving beta-lactamase), forskolin EC10, beta-lactamase ratio. Potency, µM (series often up to 38.2 µM), inactives show at the highest dose activity change, negative = inhibition, usual class: activators. 71,000 tested, 2.5% active; active = well fitted activation curve with a large enough effect in the signal ratio, with a control signal flat, not every such curve was filed as active; inconclusive = small, poorly fitted or top-dose-only effect, or effect the other way, or a change in a side signal; the % refers to the signal ratio; note: potency is the fitted concentration of half-maximal effect; % of control where 0% means no effect
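Reporter-gene assay: CHO cells with beta-lactamase behind cAMP responsive elements, co-treated with compound and EC10 NKH 477 for 3 hours at 37 degrees Celsius. Activity came from the 460/530 nm CCF4 emission ratio.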
HADH2 inh – qHTS Assay for Inhibitors of HADH2 (Hydroxyacyl-Coenzyme A Dehydrogenase, Type II). 3-hydroxyacyl-CoA dehydrogenase type-2 (Homo sapiens), Q99714. recombinant HADH2, NADH fluorescence, beta-hydroxybutyryl-CoA. Potency, µM (highest dose often 57.1 µM), without a hit: at the highest dose activity change, negative = inhibition, most hits filed as inhibitors. 73,000 tested, 3.4% active. AID 886, 2007; note: potency is the fitted concentration of half-maximal effect; % is set by controls: 0 for no effect and ±100 for the full control effect; nearly all actives have a fitted effect of over 60% in size; many of its hits are not listed in these tables
Target sequence (Q99714 whole entry, looked up, one chain of several): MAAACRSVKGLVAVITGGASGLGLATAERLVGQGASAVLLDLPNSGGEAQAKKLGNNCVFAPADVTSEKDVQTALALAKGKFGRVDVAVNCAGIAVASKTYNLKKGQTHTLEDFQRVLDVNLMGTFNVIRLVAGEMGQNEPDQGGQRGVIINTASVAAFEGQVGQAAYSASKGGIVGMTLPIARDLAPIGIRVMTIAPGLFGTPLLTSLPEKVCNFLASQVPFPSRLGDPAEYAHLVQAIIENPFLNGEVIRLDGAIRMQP
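Read-out: 360 nm excitation, 450 nm emission, kinetic over 4 min. Conditions: His-tagged human HADH2 20 nM, pH 9.0 Tris with Tween-20, 1 mM NAD+, 90 uM beta-hydroxybutyryl-CoA.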
ERK AVP block – qHTS Assay for Inhibitors of the ERK Signaling Pathway using a Homogeneous Screening Assay | HEK293-V1b, vasopressin-stimulated pERK AlphaScreen | Potency, µM (doses to about 57.5 µM), without a hit: top-dose activity, negative = inhibition, hits mostly inhibitors | 72,000 tested, 0.99% active | AID 995, 2007; note: potency is the fitted concentration of half-maximal effect; % is set by controls: 0 for no effect and ±100 for the full control effect; nearly all actives have a fitted effect of over 55% in size
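Phosphorylated ERK1/2 detected via AlphaScreen bead proximity in lysates of V1b-expressing HEK293 cells given 25 nM vasopressin for 5 min after 30 min compound exposure (37 °C). AC50 from Hill equation; basal DMSO 0%, vasopressin 100%.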
HBB splicing – qHTS Assay for Modulators of Hemoglobin Beta Chain Splicing; HBB splicing reporter cell assay, activation; EGFP reporter with mutant IVS2-654 intron; response scale: normalised to 500 nM splice-correcting PNA; Potency, µM (titrated, usually from 46.1 µM), for the others: at the highest dose activation, actives largely listed as activators; 65,000 tested, 0.06% active; AID 925, 2007; note: potency is the fitted concentration of half-maximal effect; 0% is about no effect
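Compounds were applied for 2 days to HeLa EGFP-654 cells, 500/well in Optimem with 2% FCS. The reporter's EGFP is disrupted by mis-splicing of beta-globin intron IVS2-654. Readout: summed well GFP fluorescence from 488 nm laser scanning; reference was 500 nM antisense […] 654 PNA.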
* hit, by the source's call; i = inactive; ? = inconclusive; / = no result given; [ ] = remark or other dose. Unless noted, calls come from the whole dose curve; as a rule, active = well fitted curve in the direction sought with a large enough effect; inconclusive = small, poorly fitted or top-dose-only effect, or another doubt; inactive = no such curve, though single readings can be large; an effect the other way counts as inactive or inconclusive.

SMILES	Luciferase inh	Tau filament bind	Pol III holo inh	Rhodamine fluor	15-hLO inh	Texas Red fluor	CRE Fsk mod	HADH2 inh	ERK AVP block	HBB splicing
COCCn1c(N)c(C(=O)NCc2cccs2)c2nc3ccccc3nc21	2.1%	67.6%	4.5%	i	-18.5%	i	?	78.1%[activator]	6.7%	0.5%[57.5 µM]
COc1ccccc1N1C(=O)C2CC=CC(C)C2C1=O (stereo unspecified)	1.6%	6.4%[11.4 µM]	-6.3%[11.4 µM]	/	5.5%[11.4 µM]	/	?	-0.9%[11.4 µM]	-4.3%	-5.2%[0.0738 µM]
O=C(NC1CCCCCCC1)c1cnccn1	0.2%	6.9%	-2.9%	/	3.1%	/	0.8%	2.0%	-13.5%	1.9%
CCC(=O)N1C(C(=O)N2CCCC2)CSC1c1ccc(OC)cc1 (stereo unspecified)	2.5%	-12.1%	-5.1%	/	0.3%	/	0.4%	3.6%	0.7%	-0.6%
Cc1ccccc1NS(=O)(=O)c1ccc2[nH]cc(C(=O)NCCCN3CCOCC3)c(=O)c2c1	0.7%	4.7%	-8.0%	i	3.8%	i	-9.4%	4.7%	15.5%	-0.5%
CCOc1ccccc1-n1c(SCC(=O)N2CCCC2)nnc1-c1ccoc1C	1.4%	6.5%	-0.1%	i	5.3%	i	-4.8%	-8.8%	-12.8%	/
CCCCCC1NC(=O)NC1CCCCCC(=O)O (stereo unspecified)	2.3%	-2.5%	-4.8%	/	-3.1%	/	-1.5%	2.7%	-19.5%	0.3%[9.22 µM]
CCCOc1ccc(C2C(C(=O)c3ccco3)=C(O)C(=O)N2CCCn2ccnc2)cc1 (stereo unspecified)	-0.9%	-4.1%	5.1%	i	8.5%	i	9.1%	-4.3%	6.9%	1.4%[1.84 µM]
O=C(COC(=O)c1ccco1)Nc1ccc2c(c1)OCO2	-26.7%	-17.7%	-4.3%	i	-10.4%	i	-9.4%	-7.0%	5.7%	0.1%[57.5 µM]
CCCn1c(=O)c2ccccc2n2c(SCc3c(C(=O)OCC)oc4ccccc34)nnc12	-0.5%	34.4%	-2.3%	i	-21.1%	i	22.3%	-10.4%	4.3%	-0.1%[57.5 µM]
N#CCSc1nc2ccccc2c(=O)n1-c1ccccc1	2.0%	-4.7%	2.8%	i	2.1%	i	?	-7.3%	12.0%	-1.3%
Cc1cccc2cc(CN(Cc3ccco3)C(=O)c3ccncc3)c(=O)[nH]c12	-1.3%	-9.6%	-11.6%	i	-9.4%	?	-2.3%	-9.1%	-22.4%	3.1%[57.5 µM]
Cc1ccc(S(=O)(=O)N2CCOCC2)cc1C(=O)Nc1nc(-c2cccnc2)cs1	1.3%	17.4%	-6.8%	i	-4.1%	i	?	-6.4%	-21.8%	-0.8%
CCOC(=O)N1CCC(NC(=O)c2ccc(CNS(=O)(=O)c3ccc(F)cc3)cc2)CC1	0.9%	34.1%	-0.3%	i	-5.5%	i	15.5%	4.5%	-7.6%	-3.1%[57.5 µM]
C=CCn1c(=O)c2ccccc2n2c(SCc3c(C(=O)OCC)oc4ccccc34)nnc12	3.4%	6.3%	1.3%	i	-1.3%	i	29.0%	0.4%	20.0%	0.8%
COc1ccc(S(=O)(=O)N2CCCC(C(=O)NCc3ccccn3)C2)cc1 (stereo unspecified)	2.8%	-3.3%	-1.0%	i	-6.1%	i	-11.1%	-4.3%	-16.3%	4.6%
CCOC(=O)N1CCC(NC(=O)C2CCCCN2S(=O)(=O)c2ccc(F)cc2)CC1 (stereo unspecified)	1.1%	-25.9%	6.4%	/	5.8%	/	-1.4%	7.1%	/	-1.1%
CCCn1c(=O)c2ccccc2n2c(SCCOc3ccc(Cl)cc3)nnc12	-14.6%	4.5%	1.5%	i	-4.0%	?	6.1%	-6.5%	-0.1%	0.0%[57.5 µM]
Cc1sc2ncnc(NCC(c3ccco3)N(C)C)c2c1C (stereo unspecified)	1.2%	10.3%	-6.0%	i	3.4%	i	7.7%	-1.6%	-27.4%	0.1%[57.5 µM]
CC1NC(=O)NC1CCCCCC(=O)NCCc1ccccc1 (stereo unspecified)	0.6%	15.8%	-1.3%	i	-10.2%	i	-7.2%	-5.9%	-16.8%	2.3%
COC(=O)c1cn(NC(=O)C2CCCCC2)c(=O)c2ccccc12	0.7%	-5.2%	-0.5%	i	1.5%	i	?	-5.3%	5.8%	-0.4%
CC1CC(C)CN(C(=O)CSc2nnc(-c3ccc(Cl)cc3)o2)C1 (stereo unspecified)	2.0%	23.3%	-14.6%	/	-3.3%	/	-3.7%	9.1%	-14.3%	0.3%
CCOC(=O)C1CCN(S(=O)(=O)c2cnc[nH]2)CC1	-0.8%	3.7%	-9.9%	i	0.7%	i	-6.9%	2.3%	-3.3%	-0.6%
CCOc1ccccc1-n1c(SCC(N)=O)nnc1-c1ccc(O)cc1	0.6%	-7.3%	-0.7%	i	-4.3%	i	1.3%	-17.2%	-12.3%	/
O=C(CSc1ccc2nnc(-c3ccccn3)n2n1)N1CCN(c2ccccc2)CC1	1.3%	-21.7%	-1.7%	/	7.2%	/	?	3.6%	/	-0.1%

Remaining list, next part.
SMILES	Luciferase inh	Tau filament bind	Pol III holo inh	Rhodamine fluor	15-hLO inh	Texas Red fluor	CRE Fsk mod	HADH2 inh	ERK AVP block	HBB splicing
Cc1onc(-c2ccccc2)c1C(=O)NCc1ccc2c(c1)OCO2	2.7%	5.9%	0.6%	/	1.1%	/	3.7%	-3.1%	-10.9%	-0.3%
Cc1cc(NC(=O)CSc2ccc3nnc(-c4ccccn4)n3n2)no1	1.3%	-24.5%	-11.8%	/	4.2%	/	17.3%	-17.3%	/	0.2%
O=C(Nc1nc(-c2cccs2)cs1)c1cccc(S(=O)(=O)N2CCCCCC2)c1	-14.1%	27.8%	-3.4%	i	-21.7%	i	?	?	5.7%	-0.5%[57.5 µM]
Cc1nc2nc[nH]n2c(=O)c1NS(C)(=O)=O	-3.0%	7.6%	-3.2%	i	2.4%	i	-2.3%	-9.3%	19.3%	/
O=S(=O)(Nc1ccc(-c2nc3cccnc3s2)cc1)c1cccs1	0.4%	416.0%	-8.0%	/	-5.7%	/	3.16µM*	3.16µM*	/	-0.5%
O=C(Nc1cccc(OC(F)(F)F)c1)c1ccc(Br)o1	-1.8%	-14.8%	-9.0%	/	?	/	-6.1%	-3.8%	-9.1%	-4.9%
Cc1ccc(NC(=O)C2CCCN2S(=O)(=O)c2ccc(F)cc2)c(C)c1 (stereo unspecified)	0.8%	12.1%	-0.2%	i	1.5%	?	-7.9%	8.4%	0.2%	-0.3%
Oc1c(C(c2cccs2)N2CCOCC2)sc2ncnn12 (stereo unspecified)	0.4%	-7.9%	-0.8%	/	7.4%	/	12.6µM*	?	/	0.4%
O=C(NCCc1c[nH]c2ccccc12)c1cc(S(=O)(=O)N2CCCCC2)ccc1N1CCOCC1	-0.3%	-3.4%	-4.4%	i	-8.0%	?	-24.9%	9.8%	-8.7%	-0.4%
Cc1cc(NC(=O)CSc2ccc3nnc(-c4ccccc4)n3n2)no1	1.0%	0.0%	3.8%	i	4.7%	?	18.8%	-6.1%	8.3%	0.5%
CCSC1(SCC)N=C(N)C2(C#N)C(c3ccccc3)NC(C)=CC12C#N (stereo unspecified)	0.6%	45.0%	3.0%	/	-0.8%	/	-14.9%	-0.6%	22.0%	-5.3%
CC(C)(CO)N1CCN(C(=S)Nc2ccccc2)CC1	2.5%[11.4 µM]	2.4%[11.4 µM]	-10.0%[11.4 µM]	i	5.0%[11.4 µM]	i	2.4%[7.6 µM]	-6.7%[11.4 µM]	-2.9%[11.5 µM]	-0.1%[9.22 µM]
CN(C)CCSc1nc(N)c2c3c(sc2n1)CN(C)CC3	-1.8%	-1.7%	-6.3%	i	0.6%	i	?	-1.0%	5.5%	0.3%
CCC(Sc1nc2c(c(=O)[nH]1)CCC2)C(=O)Nc1cccc(OC)c1 (stereo unspecified)	1.5%	4.3%	7.1%	i	-10.6%	i	16.1%	0.1%	2.1%	-1.8%
Cc1cccnc1NCc1ccc(O)c2ncccc12	1.9%	-5.8%	-2.1%	i	38.5%[activator]	i	4.2%	-9.7%	-10.4%	/
COC(=O)c1ccc(Oc2cc(C)nc(-n3nc(C)cc3C)n2)cc1	1.7%	19.3%	-3.3%	i	18.2%	i	?	8.5%	?	3.7%[0.369 µM]
CN1/C(=C\C(=O)c2ccco2)C(C)(C)c2ccccc21	-3.7%	-28.0%	-0.9%	i	-22.5%	?	?	-14.2%	?	0.0%[57.5 µM]

Not all compounds are listed, so the mix of outcomes need not match the whole.
